VACV Venus inh = qHTS for Stage-Specific Inhibitors of Vaccinia Orthopoxvirus: Venus Reporter Primary qHTS | Vaccinia virus Venus reporter expression, fluorescence | Potency, µM (titrated, usually from 36.5 µM), inactives show top-dose activity change, negative = inhibition, actives largely listed as inhibitors | 330,000 tested, 0.46% active; active means well fitted inhibition curve with a large enough effect; inconclusive means small, poorly fitted or top-dose-only effect; inactive means no such curve, though single readings can be large or run the other way; tested in A549 cells; note: nearly all actives have a fitted effect of over 30% in size; inactives centre near -10
VACV mCherry inh = qHTS for Stage-Specific Inhibitors of Vaccinia Orthopoxvirus: mCherry Reporter Primary qHTS. Vaccinia virus mCherry reporter infection, fluorescence; about a quarter of the inactives have no number. Potency, µM (top dose mostly 36.5 µM), inactives show at the highest dose activity change, negative = inhibition, most hits filed as inhibitors. 310,000 tested, 0.63% active. AID 720579, 2013; active = well fitted inhibition curve with a large enough effect; inconclusive = small, poorly fitted or top-dose-only effect; inactive = no such curve, though single readings can be large or run the other way; tested in A549 cells; note: nearly all actives have a fitted effect of over 35% in size; inactives centre near -10
An asterisk follows results filed as active; i = inactive; ? = inconclusive; / = no result given; [ ] = remark or other dose. % is set by controls: 0 for no effect and ±100 for the full control effect; potency is the fitted concentration of half-maximal effect. No enrichment for hits. Share with any hit: about 0.86%.

Results follow in this order: VACV mCherry inh | VACV Venus inh
CCCN(CCC)CCCNC(=O)C1c2cc(OC)c(OC)cc2C(=O)N(C)C1c1cccnc1 (stereo not drawn)
  -6% | -18%
CC1Cc2ccccc2N1C(=O)c1ccnc(C(C)(C)C)c1 (stereo not drawn)
  -14% | -12%
CC1=C(C(=O)Nc2cccc(F)c2)C2(CCCCC2)OC1=O
  -13% | -19%
CCOc1ccc(/C=N/NC(=O)CN2CCCCC2)cc1OCC
  -2% | -10%
COc1cc(OC)cc(-c2c(-c3cccs3)c3cc(-c4ccc5c(c4)OCO5)ccc3n2C)c1
  i | -1%
COc1c(C)cccc1C(=O)Nc1ccc(N2CCN(C(=O)c3ccccc3C)CC2)cc1
  -20% | -30%
CCC(C)NC(=O)C1CN(S(=O)(=O)c2ccccc2)CCN1S(=O)(=O)c1ccccc1 (stereo not drawn)
  / | -17%
C=CCN1C(=O)C2(OCCCO2)c2c(C)ccc(C)c21
  i | -17%
Cn1c(SCc2ccccc2)nnc1C1CCCN(Cc2cccc3ncccc23)C1 (stereo not drawn)
  -9% | -7%
Cc1ccc(C(CC(=O)O)NC(=O)CN2C(=O)c3ccccc3C2=O)cc1 (stereo not drawn)
  -4% | 4%
Cc1cc(/C=C\c2ccc3cc(N(C)C)ccc3[n+]2C)c(C)n1-c1ccccc1
  477%[activator] | /
COc1ccc(CNC(=O)c2ccccc2C(=O)O)cc1
  -11% | -5%
O=C(OCc1ccccc1)N1CCC2CC1c1cc(N3CCN(S(=O)(=O)c4cccc5ccccc45)CC3)ccc12 (stereo not drawn)
  46%[activator] | 11%
CSc1ncc(Cl)c(C(=O)O)n1
  -17%[1.46 µM] | -11%
O=C(COc1ccc(Cl)cc1)N(Cc1ccccc1)c1ccccn1
  -11% | -7%
O=C(C[N+]12CCCc3cccc(c31)CCC2)c1ccccc1
  -11% | ?
CC1=C(c2ccc(F)cc2)S(=O)(=O)NC1=NCc1ccccc1F
  -11% | -1%
CCCCCCSc1nc(O)c(C2OC(=O)c3c2ccc(OC)c3OC)c(=O)n1-c1ccccc1 (stereo not drawn)
  / | -17%
Cc1cnc(C(=O)OCC(=O)N(Cc2ccccc2)C(C)C)cn1
  i | -10%
Cc1nnc(SCC(=O)Nc2c(C)n(C)n(-c3ccccc3)c2=O)n1Cc1ccccc1
  i | -6%
O=C(COc1ccc2ccccc2c1)NNC(=O)Nc1ccccc1F
  -11% | -6%
OCC1(Cc2ccc(Cl)cc2)CCN(Cc2ccccc2F)CC1
  -6% | -24%
O=C(N[C@@H]1C/C=C\C[C@H](CC(=O)N(CCO)Cc2ccccc2)C(=O)N[C@@H](Cc2ccccc2)COC1=O)OCC1c2ccccc2-c2ccccc21
  ? | ?
CCN1C(=O)C(CC(=O)Nc2ccc(F)cc2)N(CCCN2CCN(c3ccc(F)cc3)CC2)C1=S (stereo not drawn)
  -18% | ?
NCCN1CCN2C(=O)CN(C(=O)c3ccccc3)CC12 (stereo not drawn)
  -13% | -13%
CCOC(=O)c1cnc2cc(-c3ccc(Cl)cc3)nn2c1-c1ccccc1
  -14% | -6%
COc1cc(CNC(C)(C)CO)cc(Br)c1OCc1ccc(Cl)cc1
  ? | ?
C=CCN1C(=O)C(CC(=O)Nc2ccc(OC)cc2)SC1=Nc1ccc(S(N)(=O)=O)cc1 (stereo not drawn)
  -21% | -7%
CC1CN(CCOc2ccc([N+](=O)[O-])cc2)CC(C)O1 (stereo not drawn)
  i | 0%
COCCCN1C(=O)C(=O)/C(=C(/O)c2ccc3c(c2)OCCO3)C1c1ccc(C(=O)OC)cc1 (stereo not drawn)
  / | -7%
COc1ccc(NC2CCCN(C(=O)c3oc(C)cc3C)C2)cc1OC (stereo not drawn)
  0% | -18%
CCc1nn2c(=O)cc(COC(=O)c3cccs3)nc2s1
  -5%[7.34 µM] | -1%[7.34 µM]
CC1=CC(c2ccccc2)n2ncnc2N1 (stereo not drawn)
  i | -7%
COc1cc(CC(=O)OCC(=O)N(C)C2CCCCC2)cc(OC)c1OC
  i | -11%
CC(CS(=O)(=O)c1ccc2c(c1)NC(=O)CS2)C(=O)N1CCN(c2cccc(Cl)c2)CC1 (stereo not drawn)
  -15% | -16%
CCCNc1nc2c(c(=O)[nH]c(=O)n2C)n1CCCc1ccccc1
  -6% | -5%
O=C1NC[C@H](CCCCN2CCN(CC3CCCCC3)C(=O)C2=O)N(CC2CCCCC2)C1=O
  3% | 10%
Cc1ccc(OCc2nn3c(-c4ccco4)nnc3s2)cc1
  -4% | -18%
CCOC(=O)Cn1nc(-c2ccccc2)c(-c2ccccc2)nc1=O
  -2% | -9%
O=C(COC(=O)CCS(=O)(=O)c1ccc(Cl)cc1)NCCc1ccccc1
  -8% | 1%
O=C(NCc1ccccc1)C1=C[C@H](c2ccc3c(c2)OCO3)C[C@H](OCCCCO)O1
  i | -4%
CN1CC=C2C(C#N)=C(N)C(C#N)(C#N)C(c3cccc(Cl)c3Cl)C2C1 (stereo not drawn)
  -23% | 3%
O=C1CCCN1CCCNCC(O)c1ccccc1 (stereo not drawn)
  -23% | -7%
CCN(CC)S(=O)(=O)c1cccc(NC(=O)COc2ncnc3sccc23)c1
  -6% | -17%
O=C(NCCc1ccc(C(F)(F)F)cc1)C1CCC(=O)N(CCc2cccc(F)c2)C1 (stereo not drawn)
  -28% | -22%
COCCNC(=S)Nc1cccc2cnccc12
  i | -16%
Cc1ccccc1S(=O)(=O)Cc1ccc(C(=O)NC2CCCCC2C)o1 (stereo not drawn)
  -10% | -6%
CC1=C(C(=O)NCc2cccc(Cl)c2)C2(CCCCCC2)OC1=O
  -11% | -12%
Cc1ccccc1C(=O)NC(NC(=O)c1ccccc1C)c1cccc([N+](=O)[O-])c1
  i | -7%
CC1(C(=O)Nc2ccccc2Br)CCN1C(=O)Cc1ccccc1Cl (stereo not drawn)
  -2% | 4%
CNc1oc(-c2ccc(Cl)cc2)nc1C#N
  -13% | -10%
Cc1ccc(Cl)cc1NC(=O)CSCc1cnn(-c2ccccc2)c1-n1cccc1
  -17% | -6%
Cc1ccc(-n2c(=O)c3cccnc3n2CC(=O)NCc2ccc(Cl)cc2)cc1
  -17% | -8%
CN(C)CC(C)(C)CNC(C(=O)Nc1ccc(Cl)cc1C(F)(F)F)c1ccccc1 (stereo not drawn)
  i | -12%
COc1ccc(S(=O)(=O)NC(=O)C2(C)CCN2C(=O)Cc2cc(F)ccc2F)cc1 (stereo not drawn)
  11% | -2%
CNC(=S)N(CCc1c(C)[nH]c2ccccc12)Cc1cccnc1
  ? | -8%
COc1ccc(-c2cc(C(=O)NCc3cccc(Cl)c3)[nH]n2)c(C)c1
  i | 1%
CCCc1nnc(SCC(=O)N2CCCC2)n1Cc1ccco1
  -1% | 8%
O=c1[nH]c(SCc2ccc(Br)cc2)nc2c1CCCC2
  -2% | 2%
COc1ccc(-c2csc(NC(=O)CSCC(=O)Nc3cc(C)on3)n2)c(OC)c1
  -12% | -27%

Some of the entries so far, as labelled records.
CN(C)CC(C)(C)CNC(C(=O)Nc1ccc(Cl)cc1C(F)(F)F)c1ccccc1 (stereo not drawn)
  VACV mCherry inh: i; VACV Venus inh: -12%
COc1ccc(S(=O)(=O)NC(=O)C2(C)CCN2C(=O)Cc2cc(F)ccc2F)cc1 (stereo not drawn)
  VACV mCherry inh: 11%; VACV Venus inh: -2%
CNC(=S)N(CCc1c(C)[nH]c2ccccc12)Cc1cccnc1
  VACV mCherry inh: ?; VACV Venus inh: -8%
COc1ccc(-c2cc(C(=O)NCc3cccc(Cl)c3)[nH]n2)c(C)c1
  VACV mCherry inh: i; VACV Venus inh: 1%

Going on with the list.
Results follow in this order: VACV mCherry inh | VACV Venus inh
CC(C)c1ccc(-c2cc(C(=O)N3CCOCC3)c3cc(Br)ccc3n2)cc1
  i | -16%
CCOC(=O)C(=O)/C(C#N)=C/Nc1ccc(F)cc1
  / | -1%
COCCN1C(=O)N[C@@H](c2cccc(C(F)(F)F)c2)[C@@H](C(=O)OC)[C@H]1C
  i | -7%
O=C(Nc1nc(-c2ccccn2)cs1)c1ccc([N+](=O)[O-])o1
  ? | -13%
CC(C)c1ccc(/C=C2\SC(N3CCOCC3)=NC2=O)cc1
  -4% | -15%
COc1ccc(S(=O)(=O)N(C)C)cc1NC(=O)c1ccc(OCC2CCCO2)cc1 (stereo not drawn)
  i | -19%
O=C(NCc1ccccc1Cl)c1ccc(CSCc2ccccc2Cl)o1
  i | -7%
O=[N+]([O-])c1ccc(COc2cccc(CN3CCCCC3)c2)cc1
  -9% | -16%
Cc1nc2cc(-c3cccc(F)c3)nn2c(C)c1CCC(=O)N1CCN(c2ccc(F)cc2)CC1
  -7% | -15%
CSc1ccc(-c2nc(CN3CCCCC3c3cccnc3)c(C)o2)cc1 (stereo not drawn)
  -12% | 7%
Cc1ccc(NC(=O)Cn2cnc3sc(C(=O)O)c(C)c3c2=O)cc1Cl
  7% | 20%
Cc1nn(C2CCCCC2)c(N)c1-c1ccccc1
  / | -11%
COC(=O)c1c(Oc2ccc(Br)cc2)nnc(-c2ccccc2)c1-c1ccccc1
  i | -3%
CCOc1ccc(-c2cc3c(=O)n(CC(=O)Nc4cc(F)ccc4C)ccn3n2)cc1
  -28% | ?
CCN(c1ccccc1)S(=O)(=O)c1nnc(NC(=O)C(C)Oc2ccccc2)s1 (stereo not drawn)
  -4% | -5%
CCCCOc1ccc(-c2nnc(-c3cc[n+](C)cc3)o2)cc1
  -7% | 2%
CCCCNC(=O)NC12CC3CC(CC(C3)C1)C2
  -3% | -16%
COc1ccc(CNC(=O)c2ccc3c(c2)N(Cc2cc(C)ccc2C)C(=O)CS3)cc1
  13% | -1%
COC(=O)/C(C)=C/CC12OC(C)(C)C3CC(C=C4C(=O)c5cc6c(c(CCC(C)(C)Cl)c5OC431)OC1(C)CCC(=C(C)C)C6C1)C2=O (stereo not drawn)
  -18% | -9%
Cc1nc2c(OCCC3CCCCC3)cccn2c1N(C)C(=O)CCC1CCCC1
  0% | -8%
CCC1OC(=O)C(C)[C@@H](O[C@H]2C[C@@](C)(OC)C(O)C(C)O2)C(C)[C@@H](O[C@@H]2OC(C)CC(N(C)C)C2O)[C@@](C)(O)CC(C)CN(C)C(C)C(O)[C@]1(C)O (stereo partly drawn)
  -19% | -13%
CN(C)CCNC(=O)c1csc(Nc2cccc3ccccc23)n1
  ? | -8%
CCOC(=O)c1cc(-c2ccccc2)n(CCC(=O)NCCc2cccc(C)c2)c1C
  -27% | -25%
COc1ccccc1NS(=O)(=O)c1cccs1
  -12% | -11%
Cc1ccccc1Nc1c(-c2ccccc2O)nc2sccn12
  -16% | -13%
CCCCNC(=O)c1onc(CSc2ccc(Cl)cc2)c1C(=O)O
  i | 3%
Cc1cccc(C)c1NC(=O)CN(C)C(=O)COc1cccc2c1OC(C)(C)C2
  -14% | -16%
O=C(N/N=C/C(Br)=C\c1ccccc1)c1ccc2nc[nH]c2c1
  -28% | -24%
CCc1ccc(C(CNC(=O)c2ccc3c(=O)n(-c4ccccc4F)c(=S)[nH]c3c2)N(C)C)cc1 (stereo not drawn)
  ? | ?
CCOC(=O)C1(C)CCN1C(=O)c1ccccc1OC (stereo not drawn)
  9% | 11%

Filtered by structure: the entries above containing two or more sulfur atoms (8)
Results follow in this order: VACV mCherry inh | VACV Venus inh
CCC(C)NC(=O)C1CN(S(=O)(=O)c2ccccc2)CCN1S(=O)(=O)c1ccccc1 (stereo not drawn)
  / | -17%
C=CCN1C(=O)C(CC(=O)Nc2ccc(OC)cc2)SC1=Nc1ccc(S(N)(=O)=O)cc1 (stereo not drawn)
  -21% | -7%
CCc1nn2c(=O)cc(COC(=O)c3cccs3)nc2s1
  -5%[7.34 µM] | -1%[7.34 µM]
CC(CS(=O)(=O)c1ccc2c(c1)NC(=O)CS2)C(=O)N1CCN(c2cccc(Cl)c2)CC1 (stereo not drawn)
  -15% | -16%
CCN(CC)S(=O)(=O)c1cccc(NC(=O)COc2ncnc3sccc23)c1
  -6% | -17%
COc1ccc(-c2csc(NC(=O)CSCC(=O)Nc3cc(C)on3)n2)c(OC)c1
  -12% | -27%
CCN(c1ccccc1)S(=O)(=O)c1nnc(NC(=O)C(C)Oc2ccccc2)s1 (stereo not drawn)
  -4% | -5%
COc1ccccc1NS(=O)(=O)c1cccs1
  -12% | -11%

Next structures
Results follow in this order: VACV mCherry inh | VACV Venus inh
NC(=O)COC(=O)c1ccccc1SCC(=O)NC1CCCCCCC1
  -19% | -13%
CCOCCCn1c(SCC(=O)Nc2ccccc2Cl)nc2c(oc3ccccc32)c1=O
  -15% | -5%
O=C1NC2(CCCCCC2)C(=O)N1Cc1cccc([N+](=O)[O-])c1
  i | -16%
COc1ccc(/C=C/C(=O)NC(=S)Nc2ccc(S(N)(=O)=O)cc2)cc1OC
  -12% | -5%
CNC(=O)Oc1ccc(-c2cn3cc(Cl)ccc3n2)cc1
  -7% | -10%
COc1ccc(-n2c(SC(C)C(=O)Nc3ncc(Cl)cc3Cl)nc3ccccc32)cc1 (stereo not drawn)
  ? | -7%
COc1ccc(NC(=O)CC(C)n2ccnc2)cc1 (stereo not drawn)
  i | -3%
O=C(Cn1nnc(-c2ccccc2-n2cnnn2)n1)c1ccccc1
  -17% | -8%
O=C(Nc1ccc(F)cc1)c1ccccc1CC[N+](=O)[O-]
  / | -8%
COC(=O)c1c(C)nn(-c2ccc(OC(F)(F)F)cc2)c1-c1snnc1C
  -12% | -18%
O=C(OCC(=O)N1CCCC1)c1cc(Br)ccc1Cl
  i | -17%
